A1 inh: caspase 3/7 activation in MEF A1-2A-BIM cells, primary screen, A1 inhibitor project, cell-based, luminescence, HTS | Caspase-Glo 3/7 luminescence, 3 h; percent of clofoctol response, vehicle zero | caspase activation, % (test concentration not listed) | 330,000 tested, 0.066% active;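 active means over half of replicate activation scores above 10%, or exactly half above 10 with the replicate mean above 10; inconclusive means replicate mean below 10 yet half the replicates above 10; inactive means over half of replicates below 10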;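 further: wells of about 30 µL received 50 nL stock; many hits fall short of the cut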
RanGTP-Impb inh: inhibitors of RanGTP-importin-beta interaction, primary screen, biochemical, FRET, CFP-Ran, YFP-importin-beta, homogeneous; Ran GTPase (GTP-bound) - importin-beta complex; cell-free CFP-Ran/YFP-importin-beta FRET ratio; inhibition, % (concentration not given with the values); 300,000 tested, 1.1% active; AID 2216, 2009;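 active means most replicates above 15%; inconclusive means exactly half above 15%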;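 further: 0% = DMSO wells and 100% = Ran loaded with GDP instead of GTP; wells of about 40 µL received 100 nL stock; the first replicate is given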
LANA-H2A inh: blockers of LANA interaction with H2A/H2B – biochemical, FP readout, HTS, primary screen; Protein LANA1 (Human herpesvirus 8 type P (isolate GK18)), Q9QR71; cell-free LANA-H2A/H2B peptide, fluorescence polarization; inhibition, % (test concentration not listed); 320,000 tested, 0.6% active; AID 2629, 2010; in the data active means inhibition mostly above about 10%, no sharp cut-off; inactive means mostly below about 6.7%;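 further: stock transfer was 7.5 nL into about 10 µL; 0% = median of vehicle wells and 100% = median of positive control wells; one replicate is shown; the record names a cut of 25% in any replicate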
T cruzi repl: inhibitors of intracellular T. cruzi growth, primary screen, luminescence, NIH3T3 host cells. T. cruzi beta-gal in NIH3T3, 90 h. inhibition, % (no concentration beside the values). 300,000 tested, 1.4% active;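 active means mean inhibition across valid replicates above about 55%, limit read from the data; inconclusive means mean below that limit but half or more replicates reach it; inactive means mean below it, under half of replicates reach it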;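 further: signal also drops with host cell toxicity which is not excluded here; 0% = plate median of DMSO wells and 100% = zero luminescence signal; higher percent means less beta-gal luminescence so fewer parasites; stock transfer was 50 nL into about 50 µL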
Beta cell apopt: inhibitors of cytokine-induced beta cell apoptosis, primary screen, luminescence; protection from apoptosis, % (test concentration not listed); 300,000 tested, 0.8% active; INS-1E cytokine-induced death, ATP luminescence, 48 h; percent of positive-control rescue, neutral wells zero;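 active means all replicates at 75% or more, or half of them and the mean; inconclusive means half reach 75% but not the mean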;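 further: 0% = cytokine-treated negative control wells and 100% = positive control rescue; higher means more ATP so stronger rescue from cytokine killing; wells of about 40 µL received 100 nL stock; the first replicate is given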
MLL AF4-AF9 inh: inhibitors of AF4 peptide binding to AF9, primary screen, biochemical, AlphaScreen, biotin-AF4 peptide, FLAG-AF9, single point. inhibition, % at 10 µM. AID 651704, 2012. 350,000 tested, 0.47% active;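 active means every replicate reaching a set inhibition limit, whatever the replicate mean, cut at about 25% in these data; inconclusive means mean inhibition reaches that limit but some replicates miss it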;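 further: 0% = plate neutral control median and 100% = total signal loss; the record names both 10 and 1 µM as test concentration; the first replicate is given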
Target sequence (P42568 whole entry, looked up): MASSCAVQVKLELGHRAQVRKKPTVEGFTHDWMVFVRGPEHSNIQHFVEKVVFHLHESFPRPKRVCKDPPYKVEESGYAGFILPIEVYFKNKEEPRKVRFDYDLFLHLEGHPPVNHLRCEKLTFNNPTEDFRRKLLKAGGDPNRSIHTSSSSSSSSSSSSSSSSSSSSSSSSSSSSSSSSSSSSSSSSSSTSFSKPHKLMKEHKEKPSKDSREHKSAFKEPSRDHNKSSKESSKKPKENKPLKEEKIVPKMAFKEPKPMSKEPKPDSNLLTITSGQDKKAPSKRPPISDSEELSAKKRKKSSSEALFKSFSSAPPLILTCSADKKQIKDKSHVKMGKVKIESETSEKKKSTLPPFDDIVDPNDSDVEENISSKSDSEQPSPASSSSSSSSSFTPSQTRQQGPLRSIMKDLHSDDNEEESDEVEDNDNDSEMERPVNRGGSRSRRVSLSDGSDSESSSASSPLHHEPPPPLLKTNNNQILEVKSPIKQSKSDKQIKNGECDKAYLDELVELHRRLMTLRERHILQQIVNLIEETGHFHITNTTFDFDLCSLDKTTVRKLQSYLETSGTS
Vif A3G: inhibitors of Vif binding to APOBEC3G peptide, primary screen, biochemical, TR-FRET, GST-Vif 1-94, biotin-A3G peptide, dose response retest (AID 1117319); inhibition, %; hits with a dose series show IC50 in µM; 260,000 tested, 0.57% active; TR-FRET GST-Vif / biotin-A3G peptide binding; higher % means a stronger effect; test concentration not given here; strong numbers were not always called active;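 active means above the screen mean plus three standard deviations and confirmed in dose response; inconclusive means results disagree or hit not tested in dose response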;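 further: Vif residues 1-94 fused to GST binding biotinylated APOBEC3G peptide 110-148; 0% = full assay without inhibitor and 100% = GST in place of GST-Vif; retest series ran down from 100 µM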
Calb FLC: C. albicans growth inhibition with fluconazole, primary screen, CaCi-2 strain, Alamar Blue fluorescence | growth inhibition, % (concentration not given with the values) | 300,000 tested, 0.57% active | C. albicans CaCi-2 (fluconazole-resistant clinical isolate) + fluconazole, 48 h;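 active means most replicates above 75%; inconclusive means exactly half above 75%; inactive means most below 75%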;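 further: all wells also contain fluconazole at 8 µg/ml as a sub-toxic cotreatment; 0% = median of DMSO wells and 100% = median of geldanamycin control wells; wells of about 8 µL received 7.5 nL stock; the first replicate is given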
Active calls of the source: *; ? = inconclusive; · = not tested or not shown; & = joins results of further samples.

Sequence of screens: A1 inh	RanGTP-Impb inh	LANA-H2A inh	T cruzi repl	Beta cell apopt	MLL AF4-AF9 inh	Vif A3G	Calb FLC
- O=C(N/N=C/C1C(c2ccccc2)C1(Cl)Cl)c1cccc(Cl)c1 (stereo not given)
  0.4	-1.0	3.4	-17	4	-3.6	31%	-7
- Cc1cc(SCC(=O)NC2CCCC2)nc2ccccc12
  0.1	-4.4	4.3	-13	-4	0.7	·	-35
- O=C(Nc1nnc(CSCc2ccc(F)cc2)s1)c1ccc([N+](=O)[O-])cc1
  -0.1	8.7	-1.0	-11	15	·	-5%	-13
- Cn1c(CC(=O)Nc2ccc(F)cc2)nnc1SCC(=O)Nc1nncs1
  0.3	?	-1.8	-1	-7	2.3	-6%	2
- Cc1ccc(-c2nc(NC(=O)c3cc(C(C)(C)C)nn3C)sc2C)cc1Cl
  0.2	-3.8	1.5	·	33	?	·	20
- COc1ccc(/C=C(/NC(=O)c2ccc(OC)cc2)C(=O)NCCc2c[nH]c3ccccc23)cc1
  1.2	5.0	1.7	-3	6	0.0	0%	0
- CCN1CCN(c2ccc(NC(=O)c3ccc(Cl)c(N4CCCC4=O)c3)cc2)CC1
  0.0	1.3	-2.5	6	4	1.9	·	-2
- CCC(C)C(=O)Nc1cccc(SC)c1 (stereo not given)
  0.2	-2.5	-0.1	1	·	·	25%	0
- O=C(N/N=C/c1cccc2ccccc12)c1cccnc1
  -1.3	-0.6	-4.0	-9	2	4.1	-9%	2
- CN(C)c1ncc(C(=O)O)cn1
  -0.4	0.3	-2.5	-14	-1	·	15%	-2
- O=C(C1CCN(Cc2ccc(F)cc2)CC1)N(CCc1ccccc1)Cc1ccccc1
  -0.2	1.4	-5.7	9	-1	·	-7%	-9
- O=C(CC1C(=O)NCCN1CC1CCCCC1)NCc1ccc(F)cc1 (stereo not given)
  0.7	-2.8	-2.9	-1	-6	2.2	·	-3
- COC(=O)c1ccc(NC(=O)CCN2C(=O)C3C4CCC(C4)C3C2=O)cc1 (stereo not given)
  -1.0	0.8	-6.1	1	-2	-1.6	·	-2
- CC1(C)C2CCC1(CS(=O)(=O)N1CCCc3ccccc31)C(=O)C2 (stereo not given)
  0.0	-5.3	-8.3	8	-5	·	3%	-10
- COc1cc2ncc(C(=O)c3ccccc3)c(N3CCN(Cc4ccccc4)CC3)c2cc1OC
  -0.2	1.6	2.7	42	27	16	3%	29
- OC(C#CCN1CCCC1)(c1ccccc1)c1cccnc1 (stereo not given)
  0.9	0.7	27*	42	-5	-1.2	·	-10
- CCOc1ncccc1C(=O)OCC(=O)N(CC(C)C)c1c(N)n(Cc2ccccc2)c(=O)[nH]c1=O
  -0.6	?	-2.1	-6	-4	-1.9	-9%	-7
- CS(=O)(=O)N(CC(=O)N1CCCC1)c1cc(C(F)(F)F)ccc1Cl
  0.2	-1.7	-3.0	5	-4	2.2	22%	-1
- O=C(CN(C(=O)c1csnn1)c1cccc(Cl)c1)NC1CCCCC1
  -0.6	0.0	1.0	8	-2	0.2	4%	-3
- CC(/C=C/C=C/c1ccccc1)=N/NC(=O)C(O)c1ccccc1 (stereo not given)
  -0.1	3.6	1.7	-6	0	-2.6	-11%	-3
- CC(C)(C)C1CCC(N2CCN(c3ccccc3)CC2)CC1 (stereo not given)
  0.3	2.8	-2.9	33	-8	7.4	·	11
- CCc1sc(NC(=O)CN2CCOCC2)nc1-c1ccccc1
  0.6	-2.4	-2.4	2	-6	1.7	14%	-2
- COC(=O)c1sccc1NC(=O)c1ccc(OC)c([N+](=O)[O-])c1
  -0.2	5.1	0.5	-15	-1	1.3	-12%	-22
- Nc1nnnn1CC(=O)N/N=C/c1cc([N+](=O)[O-])ccc1Cl
  -0.3	-0.5	1.5	-3	·	-1.0	-14%	-19
- CC(=O)N[C@@H](C)C(=O)N1CCN(S(=O)(=O)c2ccc(Cl)cc2)CC1
  0.4	2.2	-2.4	-11	-1	0.3	-5%	15
- COc1ccc(OC)c(N/C=C/C(=O)c2ccc(OC)c(OC)c2)c1
  -0.2	-1.1	1.9	-2	3	2.8	2%	12
- CCn1c(SCC(=O)Nc2ccc(N3CCOCC3)c(Cl)c2)nnc1-c1ccc(N)cc1
  0.5	-3.3	-2.1	3	7	·	28%	?
- CCCC(=O)c1ccc(N2CCOCC2)c(F)c1
  0.3	0.1	4.1	-5	-5	·	6%	9
- Cc1ccc(CC2CC(=O)N(CC(=O)O)C2=O)cc1 (stereo not given)
  1.7	1.8	-0.4	-2	-6	·	8%	-2
- O=C(O)CC/C(=N\NC(=O)c1ccc(F)cc1)c1ccc(Br)cc1
  1.8	6.3	1.3	7	0	-3.0	-8%	-8
- COc1ccc(S(=O)(=O)N2CCOC23CCN(S(=O)(=O)c2ccccc2)CC3)cc1
  0.7	3.7	4.5	2	·	-6.8	-2%	7
- NC(=O)C1CCN(C(=O)c2cc(S(=O)(=O)N3CCOCC3)c(Cl)cc2Cl)CC1
  -0.2	1.4	3.2	1	-6	·	-2%	6
- CCn1c(=O)c(C(=O)Nc2ccccc2)c(O)c2ccccc21
  0.4	10.0	-0.9	0	-6	-5.9	-4%	-8
- CC1=CC(=C(C#N)C#N)C=C(C)N1Cc1ccccc1
  -0.1	7.2	3.7	-2	-5	-0.9	20%	25
- COc1cccc(-c2n[nH]c(=S)n2Cc2ccco2)c1
  -0.1	-0.4	-1.5	-7	-1	0.7	?	-5
- Cc1ccc(C(=O)Nc2ncccc2S(=O)(=O)c2ccccc2)cc1
  -5.9	-2.7	3.6	-2	0	-0.9	-8%	2
- Cc1ccccc1NC(=O)Cc1nc(COC(=O)COc2ccccc2C(C)C)cs1
  0.5	·	-1.8	·	-2	1.1	12%	·
- CC(C)(C)c1cc(NC(=O)Nc2ccc(Br)cc2Cl)no1
  -1.7	0.3	-1.8	51	-4	5.7	?	-15
- Cc1nn(-c2ccccc2)c(Cl)c1C(=O)N(C)c1nc(-c2ccc(F)cc2)cs1
  -0.1	5.6	4.6	-3	-2	·	-12%	9
- O=C(NCCNC(=O)c1ccc([N+](=O)[O-])cc1)c1ccncc1
  -0.4	0.0	3.2	-8	4	-3.0	-7%	-9
- O=C(NC1CC2CCCC(C1)N2C(=S)NCCc1ccccc1)C1CC1 (stereo not given)
  0.5	-0.7	1.0	5	7	0.4	-1%	1
- Clc1ccc(CSc2nncn2-c2ccc3c(c2)OCCO3)cc1
  1.4	-1.3	-2.3	5	0	-1.4	5%	-2
- CCN(Cc1ccccc1)C(=O)CSc1ncn[nH]1
  0.7	6.8	3.5	-3	-1	-1.5	-4%	5
- CCOC(=O)c1cccc(NC(=O)CCc2ccccc2)c1
  -1.0	-2.2	-0.2	1	-8	-2.2	2%	-3
- c1ccc2c(OCCCCN3CCCC3)cccc2c1
  0.7	2.0	-3.2	13	-1	11	·	-9
- CCOC(=O)c1c(C)[nH]c(C)c1C=O
  0.6	3.8	·	-1	-6	0.7	1%	-7
- Cn1c(SCC(=O)N2CCOCC2)nc2c(c1=O)SCC2
  0.9	-2.1	0.2	-1	-5	3.7	6%	4
- Cc1ccc(S(=O)(=O)N2CCC(=O)N(C(COC(=O)Nc3ccccc3)Cc3ccccc3)CC2)cc1 (stereo not given)
  0.7	-3.0	-5.0	22	5	0.2	25%	4
- Nn1c(SCC(=O)NCc2ccc3c(c2)OCO3)nnc1C1CC1
  0.7	?	1.7	-9	-4	·	-1%	-2
- CC1(C)c2[nH]c3ccccc3c2C[C@@H]2C(=O)N(c3ccc(F)cc3F)C(=O)N21
  0.2	-0.1	-0.1	-2	6	0.2	·	18

More entries.
Sequence of screens: A1 inh	RanGTP-Impb inh	LANA-H2A inh	T cruzi repl	Beta cell apopt	MLL AF4-AF9 inh	Vif A3G	Calb FLC
- Cc1cc(N2CCOCC2)nc(SCc2c(Cl)cccc2Cl)n1
  -0.1	4.4	-1.3	23	-9	-1.9	-3%	16
- CC(O)(CS(=O)(=O)Cc1ccc(Cl)cc1)C(=O)Nc1cccc(C(F)(F)F)c1 (stereo not given)
  -0.2	?	-2.2	16	-11	-7.5	5%	9
- Nc1c(S(=O)(=O)c2ccccc2)nnn1-c1ccccc1
  0.4	2.2	-0.6	1	-7	·	-10%	-14
- CCCc1cc(C(N)=O)c(NC(C)=O)s1
  0.4	·	1.6	-18	-14	·	-1%	5
- O=C(NCc1cc([N+](=O)[O-])ccc1O)c1cccnc1Sc1ccc(Cl)cc1
  0.4	1.6	-0.8	-29	10	-2.2	·	?
- COC(=O)CCSc1nc(N2CCOCC2)c2c(c1C#N)CC(C)(C)OC2
  1.9	7.7	1.1	-42	-2	1.3	2%	3
- N#Cc1ccccc1NC(=O)CSc1nnc(-c2ccncc2)o1
  0.1	0.4	13*	-7	-6	8.6	15%	0
- COc1ncnc2sc(-c3ccccc3)cc12
  -7.4	?	-2.7	-14	5	·	5%	-6
- Cc1ccccc1Oc1nc2ccccn2c(=O)c1/C=C(\C#N)C(=O)Nc1c(C)n(C)n(-c2ccccc2)c1=O
  1.4	2.1	6.3	-16	-8	·	·	4
- COc1ccc(C(=O)N=C2SC3CS(=O)(=O)CC3N2c2ccc(N(C)C)cc2)cc1OC (stereo not given)
  -1.1	1.7	2.2	3	-6	-3.3	-18%	-3
- CC(=O)c1cccc(NC(=O)C2CCCN(S(=O)(=O)c3ccccc3)C2)c1 (stereo not given)
  -0.5	0.9	0.7	-2	-5	·	-5%	-2
- Oc1ccccc1-c1nnc(-c2ccc(C(F)(F)F)cc2)o1
  -4.4	0.4	12	-8	-6	·	4%	-4
- O=C(N/N=C/c1cc2c(cc1Cl)OCO2)c1ccncc1
  -0.3	-0.1	0.2	-15	-5	·	7%	12
- O=C(CSc1nnc(SCc2ccc(Cl)cc2)s1)N1CCOCC1
  1.1	0.3	-2.2	10	-5	·	-6%	11
- CC1(OC(=O)C2CCCC2)C(=O)C=C2C=C(c3ccsc3)N(C(CO)CO)C=C2C1=O (stereo not given)
  ?	18*	-5.6	-8	-7	-3.0	15%	13
- Cc1cc(N2CCOCC2)nc(-c2ccc([N+](=O)[O-])cc2)n1
  0.3	4.7	-5.5	11	3	·	-1%	19
- O=C(Cn1nnc(-c2ccccc2)n1)N/N=C/c1ccco1
  -0.4	4.3	-3.9	-9	-15	-19	2%	8
- COc1cccc(C2C3=C(CCCC3=O)Nc3nc(-c4cc(OC)c(OC)c(OC)c4)nn32)c1 (stereo not given)
  0.7	?	2.2	12	8	·	25%&-5%	-8
- CCCCC(=O)Nc1ccc(N2CCN(c3ccc(F)cc3)CC2)cc1
  0.6	-2.3	12	-16	·	-0.7	-1%	-28

Source: PubChem (several laboratories)
